GIV Gai3 FP – GIV-Galpha-i interaction inhibition; P08753; percent of control (FP), % (no concentration beside the values); Galpha-i3/FITC-GIV peptide fluorescence polarization, 90 min; active compounds read low; scaled: aluminum fluoride 0%, vehicle 100%; 210,000 compounds, 0.42% hits;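 active = replicate mean at 85% of control or lower, very high polarization wells dropped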;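 note: wells of about 15 µL received 100 nL stock; the first replicate is given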
Target sequence (P08753 whole entry, looked up): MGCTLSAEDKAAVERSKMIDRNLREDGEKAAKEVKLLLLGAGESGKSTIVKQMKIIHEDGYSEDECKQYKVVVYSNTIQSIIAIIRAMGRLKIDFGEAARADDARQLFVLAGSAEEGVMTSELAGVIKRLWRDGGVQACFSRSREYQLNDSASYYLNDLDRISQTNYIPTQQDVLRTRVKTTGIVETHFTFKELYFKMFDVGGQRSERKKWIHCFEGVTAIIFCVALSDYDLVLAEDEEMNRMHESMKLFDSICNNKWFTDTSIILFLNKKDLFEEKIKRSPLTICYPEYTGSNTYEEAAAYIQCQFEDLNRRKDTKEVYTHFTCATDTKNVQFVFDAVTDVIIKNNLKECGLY
HCMV UL50-53 inh – inhibitors of HCMV UL50-UL53 nuclear egress complex interaction; HTRF UL50-UL53 interaction, normalized percent inhibition; inhibition, % (no concentration beside the values); 190,000 compounds, 0.15% hits;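 active = both replicates at 50% or more, plus weaker picks with an unusually low signal ratio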;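 note: stock transfer was 100 nL into about 20 µL; 0% = negative control wells and 100% = wells with untagged competitor protein; inactives centre near -12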
Sa growth inh – S. aureus growth inhibition. S. aureus RN4220 growth, OD600, 20 h, 42 °C; active compounds read low. relative growth, % (concentration not given with the values). 170,000 compounds, 0.53% hits. AID 720641;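 active = growth at 42 °C up to 50% and 20 or more points under that at 30 °C, or under 10% at both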;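 note: 300 nL library stock went into each well; scaled to the means of positive and negative controls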
Sa growth inh second temp – recorded beside Sa growth inh, whose call it bears; relative growth, %; measured here: growth at 30 °C;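 optical density after 20 h as mean of two plates; 100% = untreated growth and lower means inhibition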
* hit, by the source's call; / = no result given; & = joins results of further samples.

The opening 14 entries as a preview:
SMILES | GIV Gai3 FP | HCMV UL50-53 inh | Sa growth inh | Sa growth inh second temp
CC1=C(C(=O)Nc2ccc(CC(=O)NCc3ccc4c(c3)OCO4)cc2)SCCO1 | 106 | -22 | 90 | 94
Cc1noc(C)c1COc1cccc(C(=O)N2CCCSC2=Nc2ccccc2)c1 | / | -29 | 89 | 83
O=C1CC(c2ccccc2)Oc2ccc(O)cc21 (stereo not given) | 98 | -28 | 96 | 79
CC(C)(C)OC(=O)NC1CCN(S(=O)(=O)c2ccc(OC(F)(F)F)cc2)CC1 | 100 | -13 | 96 | 80
CCSc1ncnc2c1c(-c1ccccc1)cn2-c1cccc(F)c1 | 99 | / | 109 | 91
CCN1C(=O)CCc2cc(NS(=O)(=O)c3ccccc3Br)ccc21 | 99 | -32 | / | /
CCC1(C)CC(=O)c2c(ccc3oc(C(=O)NCCc4ccccc4)c(C)c23)O1 (stereo not given) | 107 | 10 | / | /
Cc1cc(C)cc(NC(=O)CCN2C(=O)c3ccccc3Sc3ncccc32)c1 | 102 | / | 71 | 79
O=C1CCCc2nc3nc(-c4ccncc4)nn3cc21 | 103 | / | 88 | 83
CC(C)c1c(O)nc(SCCN2CCOCC2)[nH]c1=O | 103 | -12 | 99 | 86
O=C(NCC1CC1)Nc1c[nH]c2ccccc2c1=O | 102 | -26 | 108 | 89
CCN(CC1COc2ccccc2O1)S(=O)(=O)c1ccc(C)cc1 (stereo not given) | 103 | 3 | 96 | 99
O=C1C(c2ccccc2)C(c2cccnc2)NC(c2cccnc2)C1c1ccccc1 (stereo not given) | 94 | -15 | 92 | 90
CCOC(=O)C1CCN(C(c2ccc(C)cc2)c2c(O)cc(C)n(CCOC)c2=O)CC1 (stereo not given) | 98 | / | 87 | 87

Main list, repeating the preview:
SMILES | GIV Gai3 FP | HCMV UL50-53 inh | Sa growth inh | Sa growth inh second temp
CC1=C(C(=O)Nc2ccc(CC(=O)NCc3ccc4c(c3)OCO4)cc2)SCCO1 | 106 | -22 | 90 | 94
Cc1noc(C)c1COc1cccc(C(=O)N2CCCSC2=Nc2ccccc2)c1 | / | -29 | 89 | 83
O=C1CC(c2ccccc2)Oc2ccc(O)cc21 (stereo not given) | 98 | -28 | 96 | 79
CC(C)(C)OC(=O)NC1CCN(S(=O)(=O)c2ccc(OC(F)(F)F)cc2)CC1 | 100 | -13 | 96 | 80
CCSc1ncnc2c1c(-c1ccccc1)cn2-c1cccc(F)c1 | 99 | / | 109 | 91
CCN1C(=O)CCc2cc(NS(=O)(=O)c3ccccc3Br)ccc21 | 99 | -32 | / | /
CCC1(C)CC(=O)c2c(ccc3oc(C(=O)NCCc4ccccc4)c(C)c23)O1 (stereo not given) | 107 | 10 | / | /
Cc1cc(C)cc(NC(=O)CCN2C(=O)c3ccccc3Sc3ncccc32)c1 | 102 | / | 71 | 79
O=C1CCCc2nc3nc(-c4ccncc4)nn3cc21 | 103 | / | 88 | 83
CC(C)c1c(O)nc(SCCN2CCOCC2)[nH]c1=O | 103 | -12 | 99 | 86
O=C(NCC1CC1)Nc1c[nH]c2ccccc2c1=O | 102 | -26 | 108 | 89
CCN(CC1COc2ccccc2O1)S(=O)(=O)c1ccc(C)cc1 (stereo not given) | 103 | 3 | 96 | 99
O=C1C(c2ccccc2)C(c2cccnc2)NC(c2cccnc2)C1c1ccccc1 (stereo not given) | 94 | -15 | 92 | 90
CCOC(=O)C1CCN(C(c2ccc(C)cc2)c2c(O)cc(C)n(CCOC)c2=O)CC1 (stereo not given) | 98 | / | 87 | 87
CCn1nc(CCC(=O)O)c2ccccc2c1=O | 100 | -23 | 111 | 101
N#Cc1ccc(OCc2nnc3n2CCC3)cc1 | / | -10 | 86 | 98
CC1(C)CC(=O)C2=C(C1)N(Cc1ccco1)C(=O)NC2(C(F)(F)F)C(F)(F)F | 104 | / | 97 | 92
NC(=O)CSc1ncc2c(n1)-c1ccccc1N(Cc1ccc(Cl)cc1)S2(=O)=O | 103 | / | 92 | 90
CCN(CCO)c1ccccc1 | / | -19 | 98 | 80
CCC(=O)N1CCc2cc(CNC(=O)c3ccc(OC)cc3)ccc21 | 110 | / | 105 | 100
Cc1nc2cccnc2n1-c1cc(C(=O)NCCC(C)C)ccc1Cl | 117 | -5 | / | /
CCOC(=O)/C(C#N)=C\c1ccc(Br)s1 | 103 | -74 | 100 | 85
CCOC(=O)C1CCCN(C(=O)Cn2ncc3c(C)n(Cc4ccc(F)cc4)c(C)c3c2=O)C1 (stereo not given) | 106 | 4 | 109 | 89
CCC(Sc1nc2ccncc2[nH]1)C(=O)N(CC)c1ccccc1 (stereo not given) | 101 | 3 | 83 | 84
COc1c2c(nc3ccccc13)OC(C(C)(O)COC(C)=O)C2 (stereo not given) | 107 | -18 | 81 | 84
COc1ccc(CCNC(=O)CCN2N=C(c3ccccc3)CCC2=O)cc1OC | 101 | / | 113 | 92
COc1ccc(NC(=O)c2cccc(S(=O)(=O)N3CCN(C)CC3)c2)c(OC)c1 | / | -7 | 96 | 94
CSc1nnc2c(n1)[nH]c1ccccc12 | 105 | -33 | 94 | 84
O=C(CNc1ccccc1N1CCCCC1)N1CCc2ccccc21 | / | 12 | 103 | 98
COc1cccc(C2NC(=O)NC(C)=C2C(=O)c2ccccc2)c1 (stereo not given) | / | 8 | 111 | 96
COC(=O)NC(O)C(=O)c1ccccc1 (stereo not given) | 105 | 11 | 108 | 104
COc1ccc(Nc2nc(C(=O)N3CCC(Cc4ccccc4)CC3)cs2)cc1 | 101 | -10 | / | /
CC1=C(C(=O)Nc2ccc(Br)cn2)C(c2cccc(Cl)c2)C2=C(CCCC2=O)N1 (stereo not given) | 100 | -4 | / | /
Cc1cccc(C)c1NC(=O)C1CCCN(S(=O)(=O)c2c(C)noc2/C=C/N(C)C)C1 (stereo not given) | 106 | -29 | 93 | 78
CS(=O)(=O)Nc1nnc(SCCCc2ccccc2)s1 | 103 | -28 | 97 | 92
CC(C)CN(CCNC(=O)c1cc(-c2ccc(Cl)s2)nc2ccccc12)CC(C)C | 106 | -21 | 98 | 102
CCOC(=O)C1=C(C)NC2=C(C(=O)CC(c3ccc(OC)c(OC)c3)C2)C1c1cccc(Br)c1 (stereo not given) | 96 | -2 | / | /
Cc1c(Cl)cccc1NC(=O)CSc1nccn1C | / | -13 | 85 | 87
O=C(O)c1cnn2c(-c3ccc(Cl)cc3)ccnc12 | 107 | -54 | / | /
O=C(OCC(=O)N1CCOCC1)c1ccc(Cl)c(S(=O)(=O)N2CCCC2)c1 | / | -14 | 99 | 90
C#CCNc1cc(Cl)ccc1Cl | 104 | -1 | 101 | 95
CCN(Cc1ccccc1)Cc1c(O)ccc2c(=O)c(-c3ccccc3Cl)c(C(F)(F)F)oc12 | 105 | 10 | 88 | 98
CCOC(=O)CC(=O)CSc1nc2ccccc2c(=O)n1CCc1ccc(S(N)(=O)=O)cc1 | 106&146 | / | 108 | 84
O=C(Sc1ccccn1)c1csc(C2COc3ccccc3O2)n1 (stereo not given) | 101 | -8 | 39 | 25
Cc1c(C(=O)OCC(=O)N2CCCC2)oc2ccccc12 | / | 4 | 84 | 96
CCN1c2ccccc2NC1SCC(=O)Nc1ccc(Cl)cc1 (stereo not given) | / | -10 | 98 | 86
CCOc1ccc(C(=O)Nc2ccc3nc(Nc4cccc(C(F)(F)F)c4)cc(C)c3c2)cc1OCC | 106 | / | 109 | 91
O=S1(=O)CCC(SCc2nc3ccccn3c2Br)C1 (stereo not given) | / | -4 | 95 | 88
CC1Oc2ccc(C(=O)CSc3nc(-c4ccc(Cl)cc4)c(C#N)c(=O)[nH]3)cc2NC1=O (stereo not given) | 111 | -36 | / | /
CCc1c(C(=O)NCc2cnn(C)c2)csc1C | 104 | 1 | 104 | 106
Cc1cc(C)c(NC(=O)c2sc3nc(C)cc(C)c3c2N)c(C)c1 | 107 | -16 | 99 | 92
CCOC(=O)Cc1nnc(NC(=O)C(CC)Sc2nc3ccccc3[nH]2)s1 (stereo not given) | 103 | -1 | 99 | 64
Cc1cccc(C(=O)N(C(=O)c2cccc(C)c2)c2nnnn2C)c1 | 104 | -23 | 104 | 95
COC(=O)c1ccc(C=Nc2ccc3oc(-c4cccc(OC)c4)nc3c2)cc1 | 104 | / | 113 | 89
CCN(CC)C(=O)Cn1c(=O)n(Cc2ccc(C(=O)NCCC(C)C)cc2)c(=O)c2cc(OC)c(OC)cc21 | 99 | -8 | / | /
CC1Cc2cc(S(=O)(=O)Nc3ccc(F)cc3)ccc2N1C(=O)C1CCC1 (stereo not given) | 101 | -13 | 102 | 91
Cc1cc(C)nc(NCCS)n1 | 95 | -28 | 126 | 82
CC(=C1C(=O)c2ccccc2C1=O)N1CCN(CCN=CC2=C(O)CC(c3ccc(C)cc3)CC2=O)CC1 (stereo not given) | 102 | -69 | 85 | 79
Cc1ccc2c(c1)c1c(n2CC(O)Cn2c(C)nc3ccccc32)C(=O)CCC1 (stereo not given) | 96 | -16 | / | /
CCOC(=O)c1ccc(CNC(=O)Cn2nnc(-c3ccc(C)cc3)n2)o1 | 99 | -20 | 100 | 88
Next entries:
SMILES | GIV Gai3 FP | HCMV UL50-53 inh | Sa growth inh | Sa growth inh second temp
O=C(Nc1cccc(C(=O)N2CCCC2)c1)C1=CSCCO1 | 105 | 1 | 104 | 104
C=CCn1c(O)c(C2=c3ccccc3=NC2=O)c2ccccc21 | 102 | -8 | 106 | 98
Cc1cc(C)n(-c2ncnc3scc(-c4ccccc4)c23)n1 | / | -6 | 105 | 96
O=C1CN(C(=O)c2ccc(S(=O)(=O)N3CCCCC3)cc2)C(c2ccc(F)cc2)c2cc(Br)ccc2N1 (stereo not given) | 105 | 9 | 100 | 108
COc1cc2c(cc1OC)n(CC(=O)c1ccc(F)cc1)c(=O)n1nc(CCn3nc(C)cc3C)nc21 | 103 | / | 121 | 95
CCCCNc1nc(Oc2ccc(=O)n(C)n2)nc(N2CCOCC2)n1 | 101 | -30 | 95 | 90
COc1ccccc1Nc1ncc(C(=O)N(C)c2ccc(Cl)cc2)c2ccccc12 | 101 | / | 104 | 84
Cc1cccc(S(=O)(=O)c2cn(C)c3cc(N4CCN(c5ccc(F)cc5)CC4)c(F)cc3c2=O)c1 | 103 | / | 88 | 84
COc1ccc(-c2csc(-c3cccs3)n2)cc1OC | / | -55 | 88 | 86
CC(C)(C)OC(=O)N1CCC(c2c(C(=O)N3CCN(c4ccccc4F)CC3)cnn2-c2ccccc2Cl)CC1 | 100 | / | 86 | 87
CC(C)n1c(=O)[nH]c2cc(-c3noc(-c4ccc5c(c4)OCO5)n3)ccc21 | 102 | -40 | / | /
CN(CC(=O)NCCc1ccc(S(N)(=O)=O)cc1)c1ccccc1 | / | -12 | 86 | 92
Cc1ccc(C)c(-c2ccc(=O)n(C(C)C(=O)Nc3ccccc3C(F)(F)F)n2)c1 (stereo not given) | 104 | -9 | 95 | 77
CCn1nccc1NC(=O)c1ccc(OC)cc1 | 109 | -4 | / | /
COC(=O)C(Cc1ccccc1)N=Cc1c(O)[nH]c(=O)[nH]c1=O (stereo not given) | / | 8 | 104 | 104
CNC(=O)c1c(NC(=O)c2ccc(S(=O)(=O)N3CCC(C)CC3)cc2)sc2c1CCC2 | 102 | / | 117 | 104
COCCN1C(=O)c2ccccc2C(C(=O)NCc2ccco2)C1c1c[nH]c2ccccc12 (stereo not given) | 98 | / | 100 | 80
CC(=O)Nc1c(C)nn(-c2ccccc2)c1N1CCC(C(=O)NCc2ccccc2)CC1 | 103 | -21 | / | /
OCCn1c(SCc2ccccc2)nc2ccccc21 | 102 | -23 | 92 | 84
CN(C)CCOC(=O)c1cc2ccccc2o1 | / | -14 | 104 | 88
CC(C)(C)c1cc(NC(=O)COC(=O)C2CC2)n(-c2ccccc2)n1 | / | -4 | 99 | 100
Cc1sc2nc3c4ccccc4c(NCC4CCCO4)nn3c(=O)c2c1C (stereo not given) | 101 | / | 101 | 66
C=CCc1c(CCC)nc(SCC2CC2)[nH]c1=O | 102 | -14 | 88 | 93
O=C(NNc1nc2ccccc2o1)c1cccc(Cl)c1 | / | -14 | 97 | 94
N#Cc1c(/N=C/c2ccc3c(c2)OCO3)oc(-c2ccccc2)c1-c1ccccc1 | 84* | 7 | 83 | 104
COc1ccccc1C(=O)Nc1c(C(=O)N(CCN(C)C)Cc2ccco2)oc2ccccc12 | 101 | / | 116 | 64
N#Cc1c(NC(=O)/C=C/c2ccco2)sc2c1CCCC2 | / | -16 | 65 | 94
Cc1cccc(-n2ncc(C(=O)Nc3ccc(Br)cc3)c2C2CCNCC2)c1 | 100 | 8 | / | /
COc1cccc(CNC(=O)C2CCCN(c3nnc(-n4c(C)ccc4C)s3)C2)c1OC (stereo not given) | 107 | 8 | 101 | 87
CCc1nc2nc3c(c(Nc4ccc(Br)cc4)n2n1)CCC3 | 108 | -4 | / | /
C=CCNC(=O)C1CCN(S(=O)(=O)c2cccc3nsnc23)CC1 | / | -102 | 78 | 90
Cc1nc2nc(SCC(=O)O)nn2c(C)c1C | 104 | -2 | 109 | 81
CC(C)(C)OC(=O)N1CCNc2ccccc2C1 | 105 | -1 | 102 | 94
NNC(=S)Nc1ccc(-c2n[nH]c(=S)o2)cc1 | 98 | -19 | / | /
CCn1c(=O)c2c(C(=O)Nc3ccc(F)c(Cl)c3)cc(=O)n(CC)c2n(C)c1=O | 106 | -28 | / | /
N#CCCn1cc(/C=C2\N=C(c3ccccc3)OC2=O)c(-c2ccc(F)cc2)n1 | / | -14 | 91 | 99

Compound activity from PubChem BioAssay.
